High-throughput results from PubChem.
MgrA-DNA mod – alters Staphylococcus aureus MgrA binding to DNA. fluorescence polarization. inhibition, %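 (about 10 µg/mL by stock and volumes)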. 0.13% of 84,000 active. AID 602314;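 active = above 50% in either of two replicates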;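 note: 0% = protein plus DNA without compound and 100% = DNA alone without protein; higher means less MgrA bound to DNA so lower polarization; one replicate is shown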
Sa helicase inh – blocks Staphylococcus aureus DNA helicase | purified S. aureus helicase, fluorescence unwinding assay; about half of the hits fall short of the stated cut | inhibition, %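 (tested at about 80 µM)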 | 0.05% of 120,000 active | AID 485395;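 active = both duplicates at 50% or more, or one of them with a favoured structure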;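 note: 0% = mean of negative control wells and 100% = mean of positive control wells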
Active calls of the source: *; & = joins results of further samples. Some of the compounds tested. The share of hits here may be higher or lower than overall.

Results for CC1(C)CC(=O)c2c(Nc3ccccc3)noc2C1 ?
MgrA-DNA mod: -0.8; Sa helicase inh: -6

What do the screens show for `COc1ccccc1N=c1oc2ccc(Cl)cc2cc1C(N)=O`?
MgrA-DNA mod: 7.7; Sa helicase inh: -4

How did O=C(CN1CCN(Cc2ccccc2)CC1)NCCc1ccccc1 do in these assays?
MgrA-DNA mod: 2.0; Sa helicase inh: 14

How did NCC(c1ccccc1)c1ccc2c(c1)OCCO2 (configuration not stated) do in these assays?
MgrA-DNA mod: 1.1

Results for Cc1cc(C(F)(F)F)nc2sc(C(=O)c3cccc(Cl)c3)c(N)c12 ?
MgrA-DNA mod: 21; Sa helicase inh: -10

Results for CC1=NN(c2ccccc2)C(=O)C1C(=O)c1ccccc1Br (configuration not stated) ?
MgrA-DNA mod: -3.0; Sa helicase inh: 7

What do the screens show for `CC(C)(C)CC(C)(C)NC(=O)Nc1cccc(Cl)c1`?
MgrA-DNA mod: -1.1; Sa helicase inh: -8

How did Cc1ccc(/C=C2\C(=O)ON=C2c2ccccc2)o1 do in these assays?
Sa helicase inh: -29

What do the screens show for `CCOC(=O)N1CCN(C(=O)c2ccc(S(=O)(=O)c3ccc(C)cc3)c(NC(C)=O)c2)CC1`?
Sa helicase inh: -9

What do the screens show for `Cn1c(C(=O)NCCCN2CCCC2)cc2c(=O)[nH]c3ccccc3c21`?
MgrA-DNA mod: -0.1; Sa helicase inh: 19

What do the screens show for `Cc1onc(C(=O)NN)c1-c1csc(COc2ccc(Cl)cc2)n1`?
MgrA-DNA mod: 3.8

What do the screens show for `O=C1/C(=C\c2ccccc2)SC(=S)N1CNc1ccccc1`?
MgrA-DNA mod: 2.5; Sa helicase inh: 8

Results for Cc1ccc(-c2nnc(-c3cnn(-c4ccc([N+](=O)[O-])cc4)c3C(F)(F)F)o2)cc1 ?
MgrA-DNA mod: 2.8

How did O=C1NN=C(c2ccccc2)CC1c1c[nH]c2ccccc12 (configuration not stated) do in these assays?
MgrA-DNA mod: 2.5; Sa helicase inh: 10

How did COc1ccc2c(CNCC3CCCO3)c(C(=O)O)n(Cc3ccc(C)cc3)c2c1 (configuration not stated) do in these assays?
MgrA-DNA mod: 1.2; Sa helicase inh: -2

How did COc1ccc(-c2nc3cc4c(cc3o2)Oc2ccccc2N4)cc1 do in these assays?
MgrA-DNA mod: 0.0

Results for O=C(Cn1nc(Cc2ccncc2)c2ccccc2c1=O)NCCCN1CCCCC1 ?
MgrA-DNA mod: 7.7; Sa helicase inh: -7

Results for Cc1cc(=O)oc2c(/C=N\NC(=O)c3ccc(Br)cc3O)c(O)ccc12 ?
MgrA-DNA mod: 14; Sa helicase inh: -64

How did O=C(COC(=O)c1ccc(Br)cc1)NCc1ccccc1 do in these assays?
MgrA-DNA mod: -1.4; Sa helicase inh: -15

How did CCOC(=O)c1ccc(-c2ccc(C3Nc4ccccc4-c4nnc(SCC)nc4O3)o2)cc1 (configuration not stated) do in these assays?
Sa helicase inh: 10

How did CCOC(=O)CS(=O)(=O)c1nc(-c2ccccc2)cc(C(F)(F)F)n1 do in these assays?
MgrA-DNA mod: 5.8; Sa helicase inh: 2

What do the screens show for `COc1cccc(NC(=S)N(CCN(C)C)C(C)c2cccnc2)c1` (configuration not stated)?
Sa helicase inh: 2

How did CCOC(=O)C1C(C)=NC(=O)NC1/C=C/c1ccccc1 (configuration not stated) do in these assays?
Sa helicase inh: -11

Results for Cc1ccc(-n2nc(C)c3c(C(=O)Nc4cccnc4)cc(C)nc32)cc1 ?
Sa helicase inh: 2

How did CCS(=O)(=O)N1CCN(CC2CC3C=CC2C3)CC1 (configuration not stated) do in these assays?
MgrA-DNA mod: -3.1; Sa helicase inh: 5

What do the screens show for `CCN1CCCC1CNC(=O)Cn1cccc1C(=O)c1ccccc1` (configuration not stated)?
Sa helicase inh: 11

Results for CC1=C/C(=N\NC(=S)Nc2ccc(F)cc2)CC1 ?
Sa helicase inh: -8

What do the screens show for `CN(Cc1cc(=O)n2ccsc2n1)C1CCCCC1`?
Sa helicase inh: -1

How did CCCCc1ccc(NC(=O)CS)cc1 do in these assays?
MgrA-DNA mod: 2.7; Sa helicase inh: -13

Results for O=C(Cn1cnc2ccccc21)NN=C1CCCCCC1 ?
Sa helicase inh: 8

How did O=c1cc(-c2ccccc2)nc2nc[nH]n12 do in these assays?
Sa helicase inh: -15

Results for O=C(O)C1(c2ccccc2)CCCC1 ?
Sa helicase inh: -1

Results for COC(=O)CC1=C(C)C(=O)CC2C(C)(C)CCC[C@]12C (some centres not stated) ?
MgrA-DNA mod: -7.8; Sa helicase inh: 11

What do the screens show for `CCc1cc2c(=O)c(-c3nc4ccccc4[nH]3)coc2c(CN2CCCC(C)C2)c1O` (configuration not stated)?
MgrA-DNA mod: -1.2; Sa helicase inh: 14

How did O=C1NC(=O)N(C2CCCCC2)C(=O)/C1=C\C=C\c1ccco1 do in these assays?
MgrA-DNA mod: 5.3; Sa helicase inh: 4

How did N#CC1(c2cccc(Br)c2)C(=O)Nc2ccccc21 (configuration not stated) do in these assays?
MgrA-DNA mod: 1.4; Sa helicase inh: 14

What do the screens show for `CN(C)c1nc(=S)nc(NCc2ccccc2)[nH]1`?
MgrA-DNA mod: 0.1; Sa helicase inh: 12

How did O=C(Nc1cccc(-c2nnc(-c3ccco3)o2)c1)C(c1ccccc1)c1ccccc1 do in these assays?
MgrA-DNA mod: -1.6; Sa helicase inh: -9

What do the screens show for `Cc1cccc[n+]1C1[C@@H](c2cccnc2)C(C#N)=C([S-])N[C@]1(C)O` (some centres not stated)?
MgrA-DNA mod: 6.6; Sa helicase inh: -3

Results for NC(=O)c1ccc(CN2CCc3ccccc3C2)cc1 ?
MgrA-DNA mod: -1.1; Sa helicase inh: 7

Results for BrCc1cn(-c2ccccc2)nc1-c1ccccc1 ?
MgrA-DNA mod: 1.5; Sa helicase inh: -19

What do the screens show for `Cc1nc(C)c(C(=O)O)c(-c2ccc(F)cc2)c1C(=O)O`?
MgrA-DNA mod: -6.7; Sa helicase inh: 0

What do the screens show for `CC1=C(C(=O)Nc2ccccc2)C(c2ccccn2)C(C(=O)Nc2ccccc2)=C(C)N1`?
MgrA-DNA mod: -0.7; Sa helicase inh: 6

How did CCc1ccccc1NS(=O)(=O)c1ccc2[nH]cc(C(=O)NCC3CCCO3)c(=O)c2c1 (configuration not stated) do in these assays?
MgrA-DNA mod: -2.6; Sa helicase inh: 2

Results for CN(C)CCc1cc2c(c3c1ccc1ccccc13)OCO2 ?
MgrA-DNA mod: 10; Sa helicase inh: 45*

How did COc1ccc(C(=O)CCC(=O)Nc2ccccc2F)cc1 do in these assays?
Sa helicase inh: 0

Results for CCOC(=O)Cn1cnc2ccccc2c1=O ?
MgrA-DNA mod: -1.1; Sa helicase inh: -3

How did O=C(NCCCN1CCN(Cc2c(F)cccc2Cl)CC1)c1cccc(C(F)(F)F)c1 do in these assays?
MgrA-DNA mod: -0.7

What do the screens show for `O=C(CSc1nnc(-c2ccccc2)o1)NC(=O)Cc1ccccc1`?
Sa helicase inh: -3

How did S=c1[nH]ccn1-c1ccc(Cl)cc1 do in these assays?
Sa helicase inh: -9

How did O=[N+]([O-])c1ccc(S(=O)(=O)Nc2cccc(-c3cn4ccccc4n3)c2)cc1 do in these assays?
MgrA-DNA mod: 0.5

What do the screens show for `CCOC(=O)C1=C(CN2CCc3ccccc3C2)NC(=O)NC1c1ccc(OC(C)C)cc1` (configuration not stated)?
Sa helicase inh: 16

Results for CCONC1=NCC(C)S1 (configuration not stated) ?
Sa helicase inh: -17

What do the screens show for `O=C(Nc1ccccc1)NC1CS(=O)(=O)CC1NC(=O)Nc1ccccc1` (configuration not stated)?
Sa helicase inh: -8

What do the screens show for `N#CCCn1cc(/C=N/NC(=O)c2ccncc2)c(-c2ccc(F)cc2)n1`?
Sa helicase inh: -3

Results for CCc1ccc(Nc2ncnc3sc(C)cc23)cc1 ?
MgrA-DNA mod: 1.2; Sa helicase inh: 8

Results for Clc1ccc(Cc2nn[nH]n2)cc1 ?
MgrA-DNA mod: -0.5

Results for c1ccc(Oc2cccc(Oc3ccccc3)c2)cc1 ?
MgrA-DNA mod: 4.2; Sa helicase inh: -3

How did CC(C)Cn1c(SCc2nnc(-c3ccccc3)o2)nnc1-c1ccccc1F do in these assays?
Sa helicase inh: -12

Results for O=c1oc2ccccc2n1Cc1ccccc1Cl ?
MgrA-DNA mod: -4.3; Sa helicase inh: 12

A draw from above in order of SMILES length, smallest number first:
Results for CCONC1=NCC(C)S1 (configuration not stated) ?
Sa helicase inh: -17

Results for Clc1ccc(Cc2nn[nH]n2)cc1 ?
MgrA-DNA mod: -0.5

Results for CCOC(=O)Cn1cnc2ccccc2c1=O ?
MgrA-DNA mod: -1.1; Sa helicase inh: -3

Results for O=c1oc2ccccc2n1Cc1ccccc1Cl ?
MgrA-DNA mod: -4.3; Sa helicase inh: 12

Results for CCc1ccc(Nc2ncnc3sc(C)cc23)cc1 ?
MgrA-DNA mod: 1.2; Sa helicase inh: 8

Results for c1ccc(Oc2cccc(Oc3ccccc3)c2)cc1 ?
MgrA-DNA mod: 4.2; Sa helicase inh: -3

How did COc1ccc(C(=O)CCC(=O)Nc2ccccc2F)cc1 do in these assays?
Sa helicase inh: 0

What do the screens show for `O=C(CSc1nnc(-c2ccccc2)o1)NC(=O)Cc1ccccc1`?
Sa helicase inh: -3

What do the screens show for `O=C(Nc1ccccc1)NC1CS(=O)(=O)CC1NC(=O)Nc1ccccc1` (configuration not stated)?
Sa helicase inh: -8

What do the screens show for `N#CCCn1cc(/C=N/NC(=O)c2ccncc2)c(-c2ccc(F)cc2)n1`?
Sa helicase inh: -3

How did O=C(NCCCN1CCN(Cc2c(F)cccc2Cl)CC1)c1cccc(C(F)(F)F)c1 do in these assays?
MgrA-DNA mod: -0.7

What do the screens show for `CCOC(=O)C1=C(CN2CCc3ccccc3C2)NC(=O)NC1c1ccc(OC(C)C)cc1` (configuration not stated)?
Sa helicase inh: 16

How did O=[N+]([O-])c1ccc(S(=O)(=O)Nc2cccc(-c3cn4ccccc4n3)c2)cc1 do in these assays?
MgrA-DNA mod: 0.5

Remaining list, next part:
How did CC(C)C1CC(CCN)(Cc2ccccc2)CCO1 (configuration not stated) do in these assays?
MgrA-DNA mod: 4.8; Sa helicase inh: 17

How did CCOC(=O)c1nn(-c2ccccc2)c(=O)c2c(N)c(C#N)c(-c3ccco3)cc12 do in these assays?
MgrA-DNA mod: 9.5

What do the screens show for `O=C(c1cc2c(s1)-c1ccccc1SC2)N1CCCC1`?
Sa helicase inh: 5

What do the screens show for `CN(C)c1ccc(C=NCCCN=Cc2ccc(N(C)C)cc2)cc1`?
MgrA-DNA mod: 2.3

What do the screens show for `Cc1nc(-c2ccc(NC(=O)c3ccc(C(F)(F)F)nc3C)cc2)cs1`?
MgrA-DNA mod: -2.1

What do the screens show for `O=C(CSc1nnnn1-c1ccccc1)Nc1ccc(S(=O)(=O)Nc2nccs2)cc1`?
Sa helicase inh: 25

Results for Cc1cc(C)n(C(=O)c2cccc(S(=O)(=O)N3CCCC3)c2)n1 ?
MgrA-DNA mod: 0.4; Sa helicase inh: 3

What do the screens show for `COC(=O)c1ccsc1NC(=O)CS(=O)(=O)c1ccccc1`?
Sa helicase inh: 7

What do the screens show for `O=C(NCCN1CCOCC1)c1nn2c(C(F)(F)F)cc(-c3ccccc3)nc2c1Br`?
MgrA-DNA mod: -0.3

Results for O=C(N1CCCCC1)N1c2ccccc2C=Cc2ccccc21 ?
MgrA-DNA mod: 0.6; Sa helicase inh: 3

Results for O=C(O)/C=C/C(=O)Nc1ccc(N2CCOCC2)cc1 ?
Sa helicase inh: 7

How did O=C(Cc1ccccc1)NC1CCN(C(=O)c2cccs2)CC1 do in these assays?
MgrA-DNA mod: -1.4

How did NC1=NC(=O)/C(=C\c2ccc(F)cc2)S1 do in these assays?
MgrA-DNA mod: -0.5; Sa helicase inh: -19

What do the screens show for `Cn1c(N)c(C(=S)NC(=O)C(C)(C)C)c(=O)[nH]c1=O`?
Sa helicase inh: -5

How did CCCN=C1NC(=O)C(CC(=O)Nc2ccccc2Cl)S1 (configuration not stated) do in these assays?
Sa helicase inh: -3

Results for Cc1noc(C)c1/C=C/C(=O)Nc1ccccc1C(C)(C)C ?
Sa helicase inh: -6

How did O=C1NCCNC1CC(=O)N1CCN(c2ccccc2)CC1 (configuration not stated) do in these assays?
Sa helicase inh: 31

What do the screens show for `OC(COc1cccc2ccccc12)CN1CCOCC1` (configuration not stated)?
MgrA-DNA mod: -0.5; Sa helicase inh: -2

What do the screens show for `O=C(O)c1ccccc1C(=O)Nc1cc(-c2ccccc2)[nH]n1`?
MgrA-DNA mod: -0.8

How did CCN(CC)CCOC(=O)C1(C2CCCCC2)CCCCC1 do in these assays?
MgrA-DNA mod: 0.0&-1.2

What do the screens show for `COc1ccc(-c2c(N)n[nH]c2-c2ccccc2)cc1OC`?
MgrA-DNA mod: 1.0; Sa helicase inh: -1

What do the screens show for `Cc1cc2occ(CC(=O)OCC(=O)Nc3sccc3C#N)c2cc1C`?
Sa helicase inh: -42

How did O=C1/C(=C\c2cccnc2)SC(=S)N1C1CCS(=O)(=O)C1 (configuration not stated) do in these assays?
MgrA-DNA mod: 2.6; Sa helicase inh: 1

Results for Cc1c(CC(=O)O)c(=O)oc2cc3oc4c(c3cc12)CCCC4 ?
MgrA-DNA mod: 0.9; Sa helicase inh: 5

What do the screens show for `Cc1nc2cc(-c3ccccc3)nn2c(C)c1CC(=O)O`?
Sa helicase inh: 5

Results for CCCN(CCC)S(=O)(=O)c1ccc(N)cc1 ?
MgrA-DNA mod: -1.5; Sa helicase inh: 7

What do the screens show for `CCCCN(Cc1ccccc1)C(=O)C1CCN(Cc2cccc(O)c2)CC1`?
MgrA-DNA mod: -9.2; Sa helicase inh: 6

What do the screens show for `C/C=C(/C(=O)O)c1ccccc1`?
MgrA-DNA mod: -1.6

What do the screens show for `CC(C#N)Sc1nnc(-c2ccco2)n1C1CCCCC1` (configuration not stated)?
Sa helicase inh: -3
